# Compound activity deposited in PubChem BioAssay by National Center for Advancing Translational Sciences (NCATS).
# Cruzain inh noDet: inhibitors of Trypanosoma cruzi cruzain without detergent. purified cruzain, Z-FR-AMC fluorescence, no detergent. Potency, µM, without a hit: max response, negative = inhibition, usual class: inhibitors. 2.3% of 200,000 active. AID 1476; active = well fitted curve in the direction sought with a large enough effect; inconclusive = small, poorly fitted or top-dose-only effect, or another doubt; inactive = no such curve, though single readings can be large; an effect the other way counts as inactive or inconclusive;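 also: plate controls were enzyme without inhibitor for no effect and buffer without enzyme for full effect; nearly all actives have a fitted effect of over 40% in size; top concentration of the series not given in the record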
# Target sequence (P25779 123-467 limits assumed): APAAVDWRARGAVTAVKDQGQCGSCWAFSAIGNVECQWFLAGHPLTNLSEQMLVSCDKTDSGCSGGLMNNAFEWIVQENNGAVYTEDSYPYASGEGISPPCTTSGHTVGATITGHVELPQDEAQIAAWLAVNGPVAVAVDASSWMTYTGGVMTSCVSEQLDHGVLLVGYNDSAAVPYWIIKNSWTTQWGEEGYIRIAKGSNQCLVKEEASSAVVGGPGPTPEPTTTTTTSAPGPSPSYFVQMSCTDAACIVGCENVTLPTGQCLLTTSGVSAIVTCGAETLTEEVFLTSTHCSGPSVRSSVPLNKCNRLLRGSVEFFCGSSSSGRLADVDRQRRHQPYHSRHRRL
#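 Detergent-free condition (0.00005% Triton X-100) in acetate buffer pH 5.5 with DTT. 1.5 nM enzyme and compound were pre-mixed 15 min, then 2 uM Z-FR-AMC substrate added; reaction progress from fluorescence change between first and third reads (60 s).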
# SARS PLpro yeast: inhibitors of SARS-CoV papain-like protease in yeast | AID 485353 | Potency, µM (doses to about 32.9 µM), for inactives: at the highest dose activity, positive = growth rescue | S. cerevisiae expressing SARS-CoV PLpro, growth rescue; control for the full effect not named in the record | 0.19% of 330,000 active; also: 0% is about no effect; nearly all actives have a fitted effect of over 55% in size; growth read by luminescence after 48 h
# RE007 growth inh: less growth of the S. pombe RE007 Vpr strain | AID 651644 | S. pombe RE007 Vpr strain, BacTiter-Glo ATP luminescence, 24 h; control for the full effect not named in the record | Potency, µM (doses to about 92.2 µM), for the others: top-dose activity change, negative = less growth | 0.21% of 360,000 active; active = well fitted falling curve with a large enough effect; inconclusive = small, poorly fitted or top-dose-only effect; inactive = no such curve, though single readings can be large or run the other way;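 also: % is scaled to controls: 0 for no effect and ±100 for the full control effect; nearly all actives have a fitted effect of over 50% in size; the assay follows cell death caused by Vpr and the record does not say whether a fall means rescue or toxicity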
#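 Fission yeast RE007 carrying one integrated HIV-1 vpr copy, seeded at OD 0.01 in PMG+AL medium with 23 nL pinned compound. Grown 24 h at 30 degrees; viability read by BacTiter-Glo luminescence after 5 min.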
# StopGo reporter: FMDV 2A StopGo reporter, luciferase signal. human cells with a luciferase reporter of 2A StopGo recoding; control for the full effect not named in the record. Potency, µM (series often up to 57.9 µM), inactives show at the highest dose signal change, negative = less light. 1.2% of 410,000 active; active = well fitted falling curve with a large enough effect; inconclusive = small, poorly fitted or top-dose-only effect; inactive = no such curve, though single readings can be large or run the other way; tested in HEK293T cells; also: % is scaled to controls: 0 for no effect and ±100 for the full control effect; nearly all actives have a fitted effect of over 45% in size; luciferase light after 4 h
# MARV entry inh: inhibitors of Marburg virus binding or cell entry; Marburg virus pseudotyped entry inhibition, cell reporter; control for the full effect not named in the record; about a third of the inactives were read at about 46 µM; Potency, µM (series often up to 37.8 µM), for the others: at the highest dose activity change, negative = inhibition, actives largely listed as inhibitors; 1.8% of 300,000 active; active = well fitted inhibition curve with a large enough effect; inconclusive = small, poorly fitted or top-dose-only effect, or effect the other way; inactive = flat fitted curve, though single readings scatter; tested in HEK293 cells; about a fifth of its hits are not listed in these tables; also: % is scaled to controls: 0 for no effect and ±100 for the full control effect; luciferase read-out
# Cruzain Triton: inhibitors of Trypanosoma cruzi cruzain with detergent. Potency, µM, inactives show max response, negative = inhibition, hits mostly inhibitors. P25779. purified cruzain, Z-FR-AMC fluorescence, 0.01% Triton. 0.43% of 200,000 active. AID 1478; active = well fitted curve in the direction sought with a large enough effect; inconclusive = small, poorly fitted or top-dose-only effect, or another doubt; inactive = no such curve, though single readings can be large; an effect the other way counts as inactive or inconclusive;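 also: plate controls were neutral wells for no effect and buffer without enzyme for full effect; nearly all actives have a fitted effect of over 40% in size; top concentration of the series not given in the record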
#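 Steps: dispense cruzain (1.5 nM final) in acetate buffer pH 5.5 with DTT and 0.01% Triton X-100; pin-transfer compounds; incubate 15 min RT; add Z-FR-AMC (2 uM final); read fluorescence every 30 s, using the 60 s intensity change.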
# Lassa entry inh: Lassa virus entry inhibition; Lassa virus pseudotype entry inhibition, cell reporter; control for the full effect not named in the record; Potency, µM (titrated, usually from 37.9 µM), for the others: at the top dose activity change, negative = inhibition, actives largely listed as inhibitors; 1.2% of 300,000 active; AID 540256; active means well fitted inhibition curve with a large enough effect; inconclusive means small, poorly fitted or top-dose-only effect, or effect the other way; inactive means flat fitted curve, though single readings scatter; tested in HEK293 cells; also: % is scaled to controls: 0 for no effect and ±100 for the full control effect; nearly all actives have a fitted effect of over 50% in size; luciferase read-out
# NS1 inh: influenza NS1 inhibition; S. cerevisiae slowed by influenza A NS1, growth recovery by OD600; 0.4% of 270,000 active; Potency, µM (doses to about 46.1 µM), inactives show top-dose activity, positive = more growth; AID 2326; also: actives are rising curves; nearly all actives have a fitted effect of over 50% in size
#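 Recovery from NS1-induced slow growth read by OD600 in budding yeast switched to galactose assay medium (pH 6.0, -URA) at 1:100 dilution. Compound 23 nl per well; the matching strain lacking NS1 serves as control.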
# Starred values were filed as active, the others as inactive; u = inconclusive; x = not tested or not shown; & = joins results of further samples; [ ] = dose if it differs, or a comment. Unless noted, calls follow the shape of the dose curve; as a rule, active means well fitted rising curve with a large enough effect; inconclusive means small, poorly fitted or top-dose-only effect; inactive means no such curve, though single readings can be large or run the other way. Potency is read from the fitted curve at half-maximal effect.
SMILES,Cruzain inh noDet,SARS PLpro yeast,RE007 growth inh,StopGo reporter,MARV entry inh,Cruzain Triton,Lassa entry inh,NS1 inh
CCN(CC)CCN1C(=O)c2ccccc2NC1c1ccc(Br)cc1 (centres undefined),x,-2%,-2%,-4%,u,x,-12%,x
Cc1ccnc(NC(=O)CS(=O)(=O)c2ccccc2)c1,x,-1%,1%,56%[activator],u,x,19%[46.1 µM],-5%
O=C(COC(=O)CNC(=O)C1CCCCC1)Nc1ccccc1,x,1%,-5%,-8%,13%[46.1 µM],x,-3%[46.1 µM],x
CCN(CC(=O)Nc1ccc(NC(C)=O)cc1)C(=O)CSCC(=O)Nc1ccc(C)cc1,x,0%,3%,5%,2%,x,4%[46.1 µM],x
O=C(NC(=O)c1ccccc1)Nc1ccccc1,x,-2%,2%,-44%,2.8µM*,x,u,2%
COc1ccc(C(CNC(=O)c2ccc(S(=O)(=O)Nc3ccccc3F)cc2)N(C)C)cc1 (centres undefined),x,0%,-10%,-23%,x,x,x,4%
Cn1c(=O)oc2cc(S(=O)(=O)Nc3ccc(F)cc3)ccc21,x,0%,5%,-2%,x,x,x,2%
COc1ccc(C)cc1N(C(=O)Cn1nnc(-c2ccc(C)o2)n1)C(C(=O)NC1CCCC1)c1ccncc1 (centres undefined),x,0%,18%,9%,u,x,x,2%
CN1C2CCC1CC(OC(=O)c1ccc([N+](=O)[O-])cc1)C2 (centres undefined),-1%,-8%,12%,9%,-18%,-2.9%,3%,6%
N#CC1(Nc2ccc(C(=O)O)cc2)CCCC1,x,x,1%,6%,16%,x,-1%[46.1 µM],x
COc1cc(Cl)ccc1OCc1cc(C(=O)NCC(C)(C)N2CCOCC2)no1,x,1%,-1%,19%,x,x,x,-17%
COc1ccccc1OC(=O)CCc1nc2ccccc2s1,x,3%,-1%,21%,22%,x,-2%,x
CSc1nnc(C(C)(C)C)c(=O)n1/N=C/c1c(O)ccc2ccccc12,x,6%,-3%,u,3%[46.1 µM],x,14%,-1%
CCCCn1c(=O)c(C(=O)NCc2ccncc2)c(O)c2ccccc21,0%,-20%,u,-23%,-17%,-6.4%,-1%,-100%
COc1cc(OC)c(N(C)S(=O)(=O)c2cccc(C(=O)NC(C)C3CC4CCC3C4)c2)cc1Cl (centres undefined),x,1%,-8%,-11%,u,x,u,0%

# Some of the entries above, set out differently.
SMILES | Cruzain inh noDet | SARS PLpro yeast | RE007 growth inh | StopGo reporter | MARV entry inh | Cruzain Triton | Lassa entry inh | NS1 inh
COc1ccccc1OC(=O)CCc1nc2ccccc2s1 | x | 3% | -1% | 21% | 22% | x | -2% | x
CSc1nnc(C(C)(C)C)c(=O)n1/N=C/c1c(O)ccc2ccccc12 | x | 6% | -3% | u | 3%[46.1 µM] | x | 14% | -1%
CCCCn1c(=O)c(C(=O)NCc2ccncc2)c(O)c2ccccc21 | 0% | -20% | u | -23% | -17% | -6.4% | -1% | -100%

# Later entries
SMILES,Cruzain inh noDet,SARS PLpro yeast,RE007 growth inh,StopGo reporter,MARV entry inh,Cruzain Triton,Lassa entry inh,NS1 inh
O=C(CN1C(=O)CCS(=O)(=O)c2ccccc21)Nc1ccc(F)cc1,x,-3%,16%,-6%,25%[46.1 µM],x,4%[46.1 µM],-15%
Nc1nc(CCOc2ccc(F)cc2)cs1,x,0%,-1%,60%[activator],14%[46.1 µM],x,-10%,x
CCCCn1c(N)c(-c2nc3ccccc3o2)c2c([N+](=O)[O-])nn(CC)c(=O)c21,u,-5%,-2%,-8%,-15%,-2.1%,5%,7%
COc1ccc(Cl)cc1C(=O)NNC(=O)COC(=O)CC(NC(C)=O)c1ccccc1 (centres undefined),x,-1%,-6%,-28%,1%,x,22%,x
CC(=O)c1c(C)oc2c1cc(NS(=O)(=O)c1ccc(Br)cc1)c1ccccc12,-25%,x,x,-30%,x,0.5%,u,x
COc1ccc(S(=O)(=O)Nc2cc(C(C)C)c(O)cc2C)cc1,2%,-2%,9%,31%[activator],-15%,-0.6%,15%,-13%
CCOc1ccc(NC(=O)CN(C)C(=O)c2ccc(COc3ccccc3)o2)cc1OCC,x,2%,-18%,-3%,-20%,x,1%,x
Cc1cc2c(cc1S(=O)(=O)Nc1cccc(C#N)c1)OCC(=O)N2,13%,x,x,54%[activator],x,2.5%,14%[46.1 µM],x
Cc1ccc(C2c3[nH]c4ccccc4c3CCN2C(=O)CCC2CCCC2)cc1 (centres undefined),u,x,x,-29%,x,-1.3%,u,x
Cc1cc(NC(=O)CCC(=O)N(Cc2ccccc2)C(C(=O)NC2CCCC2)c2ccco2)no1 (centres undefined),x,1%,30%,-9%,u,x,u,3%
O=C(O)CNC(=O)c1ccc(NC(=O)/C(=C/c2cccc([N+](=O)[O-])c2)NC(=O)c2ccco2)cc1,x,1%,-20%,-9%,16%,x,11%,5%
O=C1CC(c2ccc3c(c2)OCO3)c2cc3c(cc2N1)OCCO3 (centres undefined),-6%,7%,2%,u,-14%,-1.1%,-23%,-5%
Cc1cc(C(=O)NC2CCCN(Cc3ccc(Cl)cc3)C2)no1 (centres undefined),x,0%,-19%,-9%,x,x,x,-11%
Cc1ccc(/C=C2/Sc3ccc(C(=O)NCCN4CCOCC4)cc3NC2=O)cc1,x,-9%,3%,-4%,x,x,x,-9%
CCOc1ccccc1NS(=O)(=O)c1ccc2c(c1)N(C)CCO2,x,2%,3%,12%,x,x,x,-8%
Fc1ccc(-n2c(Cn3nnc4ccccc43)n[nH]c2=S)cc1,x,1%,5%,-16%,x,x,x,5%
CSc1ccc(CNCCCN(C)C)cc1,-3%,1%,15%,-22%,u,-2.0%,u,8%
CCOc1ccc(-c2n[nH]c(=S)n2Cc2ccccc2)cc1,x,11%,-3%,-12%,x,x,x,21%
CCOC(=O)c1cc2c(=O)n3ccccc3nc2n(CCCOC)c1=NC(C)=O,u,-1%,-8%,-24%,8%&8%,32µM*,4%,-6%
Cc1ccccc1SCC(=O)OCC(=O)N(C)c1c(N)n(Cc2ccccc2)c(=O)[nH]c1=O,x,3%,1%,-12%,19%,x,-4%[46.1 µM],x
CC1CCC(NC(=S)NCCN(C)C)CC1 (centres undefined),x,1%,-6%,64%[activator],u,x,-25%,3%
COc1ccc(C(=O)NC(C)c2nnc(SCC(=O)NC3CCCCC3)n2C)cc1 (centres undefined),x,0%,-1%,-21%,-2%[46.1 µM],x,3%,6%
Cc1ccc(CNC(=O)CS(=O)(=O)CC(=O)O)cc1,4%,2%,0%,0%,23%[46.1 µM],5.2%,-2%,9%
CCc1cccc2c(C(=O)COC(=O)c3nn(C)c(=O)c4ccccc34)c[nH]c12,12%,12%,29%,u,u,-3.6%,-3%,u
CC1CCN(C(=O)COC(=O)c2ccccc2C(=O)c2ccccc2)CC1,x,-2%,3%,12%,16%,x,u,x
CCc1cccc2c(C(=O)COC(=O)c3c(C)noc3C)c[nH]c12,-11%,5%,9%,x,6%,5.3%,-15%,-7%
Cc1cccc(OCC(=O)Nc2cc(-c3ccccc3F)nn2-c2ccccc2)c1,-5%,x,x,u,x,4.4%,-12%[46.1 µM],x
CCOC(=O)CSc1nc2ccccc2n2c(C)nnc12,3%,0%,7%,-11%&-9%,-5%&6%[46.1 µM],-3.0%,u,3%
Cc1cc(C)cc(OCC(=O)OCC(=O)N2CC(=O)Nc3ccccc32)c1,x,-1%,-2%,6%,15%[46.1 µM],x,10%,x
Cc1ccc(N2Cc3ccccc3C2=O)cc1,x,-12%,u,21%,x,x,x,-41%
COc1ccc(-n2c(C)cc(-c3csc(N)n3)c2C)cc1,20µM*,17%,-19%,u,-23%,-2.5%,5%,6%
Cc1nc(SCC(=O)N(C)C2CCCCC2)[nH]c(=O)c1Cc1ccccc1,2%,12%,7%,x,-25%,-1.2%,-18%,11%
COc1ccccc1Nc1nc(C)cc(C)n1,x,26%,-6%,13%,-9%,x,u,2%
CCOc1ccc2nc(N3CCC(C(=O)N4CCN(C(=O)c5ccco5)CC4)CC3)sc2c1,u,-30%,14%,u,u,-3.1%,-14%,-11%
CNS(=O)(=O)c1cccc(C(=O)OCC(=O)Nc2ccc(-c3nc4ccc(C)cc4s3)cc2)c1,x,0%,-21%,-39%,u,x,u,2%
O=C(NC1CCCC1)C(c1ccc(F)cc1)N(C(=O)c1csnn1)c1ccccc1F (centres undefined),x,0%,9%,14%,u,x,-6%[46.1 µM],14%
Cc1nn(C)c(C)c1S(=O)(=O)N(CC(=O)NCc1cccs1)c1ccc(C(C)C)cc1,10%,-10%,13%,2%,x,-4.1%,x,-88%
COC(=O)c1c(C(=O)OC)c(C)n(Cc2ccco2)c1C,1%,-1%,11%,-9%,-26%[46.1 µM],3.6%,2%,-11%
CCOc1ccc(-n2c(=O)c3c(C)c(C(=O)N(C)C)sc3n(CC(=O)Nc3c(C)cc(C)cc3C)c2=O)cc1,-2%,x,x,-14%,x,2.8%,16%[46.1 µM],x
CCN(CC)c1nc(=S)nc(NC(C)(C)C)[nH]1,4%,1%,-10%,-19%,6%,-0.9%,7%,19%
c1ccc(COc2cccc(CNCc3cccs3)c2)cc1,4%,-21%,-1%,-1%,u,-2.2%,-4%,-12%
CC1CN(S(=O)(=O)c2cccc(C(=O)Nc3ccc(S(=O)(=O)NC4=NCCCCC4)cc3)c2)CC(C)O1 (centres undefined),x,x,-19%,-1%,u,x,-8%,x
Cc1nn(CC(=O)N2CCOCC2)c(=O)c2ccccc12,-8%,2%,16%,13%,-4%,3.5%,4%,5%
O=C(c1ccc(-n2cccn2)cc1)N1CCc2c([nH]c3ccccc23)C1c1ccccn1 (centres undefined),x,-1%,20%,-17%,x,x,x,0%
CC1CC(=O)N(CCc2ccccc2)C(=O)C1,x,x,3%,7%,5%[46.1 µM],x,4%[46.1 µM],x
